Source: PubChem
TRPML1 blocker: human mucolipin-1 channel inhibition | Q9GZU1 | TRPML1-inducible cells, Ca2+ dye fluorescence, FDSS; stronger effect = lower value; inhibition of EC80 agonist-evoked calcium signal | activity change, negative = inhibition, % (no concentration beside the values) | 390,000 tested, 0.02% active; in the data active means activity change below about -50%; inconclusive means about -30% to -50%; inactive means above about -30%;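 also: stimulus is agonist 54-4 at its EC80 concentration; % is scaled to controls: 0 for no effect and ±100 for the full control effect; compound concentration not given in the record; the text of the record puts the active cut at -80%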
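TRPML1-DL cells, Tet-induced overnight (~16 h, 37 °C) at 1,500 cells/well, were loaded with Ca8 no-wash dye plus quencher for 45-90 min at room temperature. Compounds were pinned during FDSS kinetic reading; agonist 54-4 at EC80 (4 uM final) then added.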
D2 agonist: human D2 receptor agonism in beta-arrestin assay. 360,000 tested, 0.084% active. activation, % (no concentration beside the values). DiscoveRx PathHunter D2 beta-arrestin, luminescence, 90 min; 100% = 57 uM dopamine signal. AID 624465; in the data active = activation above about 40%; inconclusive = about 15% to 40%; inactive = below about 15%; also: compound concentration not given in the record; the text of the record calls up to 30% inactive
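DiscoveRx PathHunter D2 beta-arrestin cells (2,100/well) attached overnight, then compound-stimulated 90 min at 37 C in HBSS/10 mM HEPES/0.1% Tween-20 buffer; beta-galactosidase complementation read by luminescence after 1 h at ambient temperature. Dopamine 57 uM final (EC100) as control.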
CtBP-E1A inh: blocks the CtBP interaction with E1A. 340,000 tested, 0.49% active. AlphaScreen GST-E1A/His-CtBP binding, 1536-well; stronger effect = lower value; control for the full effect not named in the record. activity change, % (concentration not given with the values). AID 651724; in the data active means activity change below about -65%; inconclusive means about -30% to -65%; inactive means above about -30%; also: % is scaled to controls: 0 for no effect and ±100 for the full control effect
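Steps: dispense buffer (Tris pH 8.0, NaCl 300 mM, TCEP 1 mM, BSA, Tween 20); add 5X protein mix (GST-E1A, His-CtBP, 125 nM each); pin 23 nL compound; 2 h at 37 °C, dark; add 5X beads (50 ug/mL); 1 h; read.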
PINK1 modulator: modulators of PINK1 expression. 410,000 tested, 0.2% active. PINK1 immunofluorescence, high-content cytometry, 24 h. Potency, µM (doses to about 76.6 µM), for inactives: at the top dose activation (PINK1 increase), hits mostly activators; active = well fitted activation curve with a large enough effect; inconclusive = small, poorly fitted or top-dose-only effect; inactive = flat fitted curve, though single readings scatter; cell line not stated here;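 also: potency is read from the fitted curve at half-maximal effect; % of control where 0% means no effect; nearly all actives have a fitted effect of over 65% in size; a mitochondrial uncoupler was the plate control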
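Stable cell line treated 24 h with compounds at 5 concentrations (CCCP controls), then fixed and immunostained for PINK1 plus nuclear and cell stains; PINK1 immunofluorescence quantified by laser-scanning microplate cytometry.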
TRPML1 ag: activates the human TRPML1 channel. activation, % (test concentration not listed). Q9GZU1. 410,000 tested, 0.12% active. TRPML1-expressing cells, Ca2+ dye fluorescence, FDSS; host cell line not named in the record; reference of the full effect not given here. AID 624414; in the data active = activation above about 50%; inconclusive = about 30% to 50%; inactive = below about 30%; also: 0% is about no effect; the text of the record puts the active cut at 80%
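Tet-induced TRPML1-DL cells, 1,500 per well, cultured overnight, were loaded with a no-wash Ca2+ dye for 45–90 min. Calcium fluorescence was recorded on the FDSS for 110 s after compound addition, before the EC80 agonist (4 uM 54-4) was added.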
Six1-Eya2 inh: inhibitors of human Six1/Eya2 interaction. 360,000 tested, 0.56% active. AlphaScreen GST-Six1/His-Eya2 binding, biochemical; stronger effect = lower value; control for the full effect not named in the record. AID 651725. activity change, % (concentration not given with the values); in the data active = activity change below about -65%; inconclusive = about -30% to -65%; inactive = above about -30%; also: % is scaled to controls: 0 for no effect and ±100 for the full control effect
Target sequence (O00167 whole entry, looked up): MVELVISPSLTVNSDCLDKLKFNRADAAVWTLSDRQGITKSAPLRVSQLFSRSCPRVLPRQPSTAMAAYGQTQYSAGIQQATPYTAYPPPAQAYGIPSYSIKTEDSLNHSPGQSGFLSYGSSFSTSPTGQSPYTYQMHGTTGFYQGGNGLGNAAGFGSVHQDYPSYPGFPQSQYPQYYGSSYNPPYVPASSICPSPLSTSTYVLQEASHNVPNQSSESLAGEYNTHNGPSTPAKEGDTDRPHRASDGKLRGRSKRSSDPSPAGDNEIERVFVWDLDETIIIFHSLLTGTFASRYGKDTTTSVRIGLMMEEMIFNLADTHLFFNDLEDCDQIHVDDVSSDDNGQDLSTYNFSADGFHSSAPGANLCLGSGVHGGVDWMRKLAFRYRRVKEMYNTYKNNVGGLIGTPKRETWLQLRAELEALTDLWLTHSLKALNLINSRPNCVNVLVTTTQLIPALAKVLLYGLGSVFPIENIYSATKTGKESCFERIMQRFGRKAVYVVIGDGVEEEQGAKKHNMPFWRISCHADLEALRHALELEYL
Target sequence (Q15475 whole entry, looked up): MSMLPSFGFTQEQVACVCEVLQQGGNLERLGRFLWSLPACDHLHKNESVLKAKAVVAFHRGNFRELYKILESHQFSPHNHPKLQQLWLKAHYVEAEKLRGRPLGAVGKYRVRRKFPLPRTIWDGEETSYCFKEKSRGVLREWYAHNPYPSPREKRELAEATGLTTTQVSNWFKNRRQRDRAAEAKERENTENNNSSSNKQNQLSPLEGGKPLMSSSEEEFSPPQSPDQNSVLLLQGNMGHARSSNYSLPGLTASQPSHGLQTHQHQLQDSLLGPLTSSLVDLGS
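Compounds are tested against tagged Six1 and Eya2 proteins bridged by glutathione donor and nickel acceptor beads; after a one-hour incubation at 37 °C without light, AlphaScreen emission is recorded.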
Active calls of the source: *; ? = inconclusive; · = no result given; & = joins results of further samples; [ ] = another dose, or the depositor's remark.

SMILES	TRPML1 blocker	D2 agonist	CtBP-E1A inh	PINK1 modulator	TRPML1 ag	Six1-Eya2 inh
COc1ccc(NC(=O)NC2COc3ccccc3C2)c(OC)c1 (centres undefined)	3	·	·	0.7%	0.1	·
Cc1cc(S(=O)(=O)N2CCOCC2)ccc1OCC(=O)Nc1ccc(F)c(Cl)c1	-3	-3.1	-20	5.9%	0.2	2
Cc1nc(-c2ccc(S(=O)(=O)Nc3ccc(Cl)c(C(F)(F)F)c3)cc2)co1	19	·	·	11%	2.4	·
O=[N+]([O-])c1ccc(COc2ccc(CN3CCCC3)cc2)cc1	7	0.3	-14	0.2%	-0.6	-2
CCc1ccc(N2C(=O)CN(Cc3cccs3)C2=S)cc1	-4	1.8	2	5.2%	-0.2	7
CC(C)(C)[C@@H]1COC(=O)[C@H](Cc2ccc(F)cc2)CC/C=C\C[C@H](CC(=O)N(CCO)Cc2ccccc2)C(=O)N1	?	7.5	5	3.5%	0.4	3
CC(NC(=O)/C(C#N)=C/c1cn(-c2ccccc2)nc1-c1ccc(F)cc1)c1ccccc1 (centres undefined)	-15	-2.1	20	9.7%	1.0	4
Cc1ccc(C)c(OCCSc2nnc(-c3cccnc3)n2N)c1	-9	-3.3	24	0.9%	0.7	14
FC(F)(F)c1cccc(Oc2cc(C(F)(F)F)nc(-c3ccccn3)n2)c1	23	-3.7	7	?	-0.6	8
O=S(=O)(Nc1ccccc1N1CCCCC1)c1ccc(F)cc1F	12	-2.5	0	4.6%	0.2	-3
CCOc1ccc(C(=O)CCC(=O)NNC(=O)c2ccncc2)cc1	14	3.2	4	-8.7%	-0.1	1
CCOc1ccc(/C=N/N2CCN(Cc3ccccc3)CC2)cc1	1	1.9	?	2.9%	-0.2	?
O=C(Nc1nccs1)c1cc(-c2ccccc2)nn1-c1ccccc1	16	-5.2	-1	23%	-0.3	2
Cn1c(N)c(S(=O)(=O)N2CCN(c3ccccc3)CC2)c(=O)n(C)c1=O	0	0.4	5	-0.5%	-0.5	6
O=C(O)CNC(=S)N(Cc1ccccc1)Cc1ccccc1F	17	-5.4	4	3.7%	-0.6	1
Clc1ccccc1-c1ncc(-c2ccccc2)o1	·	-2.0	·	1.2%	·	-2
COc1ccccc1C1CC(c2ccc(F)cc2)Nc2ncnn21 (centres undefined)	-2	-5.0	-4	-2.5%	2.1	-1
CCC(C)c1ccc(S(=O)(=O)N2CCN(C(=O)COc3ccc4c(C)cc(=O)oc4c3)CC2)cc1 (centres undefined)	-5	-2.7	1	-0.5%	0.2	-3
COc1ccc(-c2noc(=O)n2Cc2ccccc2Cl)cc1	1	-0.7	10	0.5%	-1.5	5
CCOC(=O)c1sc(NS(=O)(=O)c2cc(C)ccc2C)nc1C	18	-1.2	-4	?	1.6	-3

Of the compounds above, these have two or more sulfur atoms.
SMILES	TRPML1 blocker	D2 agonist	CtBP-E1A inh	PINK1 modulator	TRPML1 ag	Six1-Eya2 inh
CCc1ccc(N2C(=O)CN(Cc3cccs3)C2=S)cc1	-4	1.8	2	5.2%	-0.2	7
CCOC(=O)c1sc(NS(=O)(=O)c2cc(C)ccc2C)nc1C	18	-1.2	-4	?	1.6	-3

The results go on.
SMILES	TRPML1 blocker	D2 agonist	CtBP-E1A inh	PINK1 modulator	TRPML1 ag	Six1-Eya2 inh
COc1ccc(C2=C(C)C(=O)N(Cc3ccc(C(=O)Nc4cccc(F)c4)cc3)S2(=O)=O)cc1	-18	·	·	1.2%	2.7	·
CCOC(=O)C1C(=O)NC(c2ccccc2)=NC1c1cccc(Br)c1 (centres undefined)	2	-1.0	3	2.5%	-0.4	1
COc1ccc2c(c1OC)C(=O)N1C(C(=O)O)Cc3c([nH]c4ccccc34)C21 (centres undefined)	0	-3.9	-10	1.4%	0.8	-8
CCOC(=O)c1c(C)oc2ccc(OCC(=O)C(C)(C)C)cc12	-6	-0.5	17	2.7%	2.1	20
O=C(COc1ccc(Br)cc1)Nc1ccc2oc(=O)ccc2c1	14	3.2	9	7.4%	0.2	7
CCn1c(=O)cc(SCC(=O)NCc2ccco2)c2ccccc21	-13	-1.2	-10	14%[38.3 µM]	3.3	-13
COc1cc(CCC(=O)NNC(=O)c2cccc(Cl)c2)cc(OC)c1OC	11	-1.9	2	0.3%	-0.6	-4
Cc1cccc(C(=O)Nc2cccc(OCc3cc(=O)n4c(C)csc4n3)c2)c1	-8	·	·	-0.2%	-0.7	·
O=C(Cn1ccnc1)c1ccc(O)c(O)c1	-15	-2.8	5	1.8%	0.3	-10
CC(NC(=O)CS(=O)(=O)c1ccccc1)c1ccccc1 (centres undefined)	4	-2.1	0	-0.5%	-0.2	1

Quoted from the listing:
Under TRPML1 blocker, `CC(NC(=O)CS(=O)(=O)c1ccccc1)c1ccccc1` (centres undefined) is entered as 4
Under CtBP-E1A inh, `COc1ccccc1C1CC(c2ccc(F)cc2)Nc2ncnn21` (centres undefined) is entered as -4
Under TRPML1 ag, `CCOC(=O)C1C(=O)NC(c2ccccc2)=NC1c1cccc(Br)c1` (centres undefined) is entered as -0.4
Under CtBP-E1A inh, `CCC(C)c1ccc(S(=O)(=O)N2CCN(C(=O)COc3ccc4c(C)cc(=O)oc4c3)CC2)cc1` (centres undefined) is entered as 1

Further compounds follow.
SMILES	TRPML1 blocker	D2 agonist	CtBP-E1A inh	PINK1 modulator	TRPML1 ag	Six1-Eya2 inh
CCc1ccc(N2C(=O)CC(NNc3nc4ccccc4s3)C2=O)cc1 (centres undefined)	-7	4.8	-5	?	1.4	2
O=C(COC(=O)Cc1ccc(Cl)cc1Cl)NC1CC1	5	-1.6	8	1.3%	-1.1	5
Cc1cc(C)nc(N2CCC(C(=O)NCCc3ccc(Cl)cc3)CC2)n1	23	-1.2	?	2.7%	0.7	6
CSc1ccc(C2NN=C(c3ccccc3)S2)cc1 (centres undefined)	-1	0.8	16	3.7%	-0.4	9
Cc1cc(Cl)ccc1Oc1ncnc2oc(-c3ccccc3)cc12	-6	1.0	1	13%	1.7	12
O=C(COC(=O)c1ccccc1)c1ccc(S(=O)(=O)N2CCCCC2)cc1	9	-6.3	5	1.3%	-0.3	0
O=C(Nc1ccnn1C1CCN(Cc2cccc(O)c2)CC1)C1CCCC1	15	-3.7	6	-0.8%	-0.3	-6
O=S(=O)(c1ccc2ccccc2c1)N(CC(O)CN1CCOCC1)c1ccccc1 (centres undefined)	17	-1.3	-7	1.9%	-0.6	8
COCCn1c(SCC(=O)Nc2cc(C)on2)nnc1-c1c[nH]c2ccccc12	-3	-3.2	-1	-0.4%	0.2	12
CCC(C)c1ccc(NC(=S)Nc2ccc(OC)cc2)cc1 (centres undefined)	-9	-1.6	4	?	-0.2	-7
CN(C)S(=O)(=O)c1ccc(Cl)c(C(=O)OCC(=O)NNC(=O)c2cccs2)c1	11	-0.4	-5	1.3%	0.8	2
O=c1nc(N2CCOCC2)nc(N/N=C/c2ccc3c(c2)OCO3)[nH]1	-12	-2.0	-6	0.7%	0.3	-10
CCN(C[C@H]1N[C@@](C)(C(=O)OC)[C@H]2C(=O)N(C)C(=O)[C@@H]12)C(C)=O	-17	0.3	12	-0.5%	2.3	10
COc1ccc(C2c3[nH]c4ccccc4c3CCN2Cc2cccn2-c2ncccn2)cc1C (centres undefined)	-3	-3.6	26	18%	0.5	-6
O=C(c1ccco1)N1CCN(C(=O)C2CC(=O)N(c3ccccc3)C2)CC1 (centres undefined)	-5	-1.0	-6	0.2%	1.1	15
O=C(O)Cc1ccc(NC(=O)c2cccs2)cc1	-26	0.7	10	2.3%	-0.6	1
O=C1CCCN1S(=O)(=O)c1ccccc1	-26	8.7	5	1.0%	0.4	-3
COc1ccc(S(=O)(=O)NCCOc2ccccc2)cc1F	1	-3.2	-8	-0.9%	1.9	-3
N#Cc1ccc(C(=O)Nc2cccc3ncccc23)c(F)c1	18	0.5	6	-0.7%	-0.2	1
COCc1cc(C)nc(N2CCN(Cc3ccccc3)CC2)c1C#N	7	-5.8	-2	-0.8%	-0.5	-1
COCCNC(=O)CN(Cc1ccco1)C(=O)CCC(=O)Nc1nccs1	22	7.4	-1	0.0%	-0.6	2
COc1ccc(CN2CCC[C@]3(N[C@H](c4ccc(C(F)(F)F)cc4)[C@@H]4C(=O)N(C)C(=O)[C@@H]43)C2=O)cc1	2	-9.1	-9	1.3%	-0.4	-8
Cc1c(NC(=O)C(C)Oc2ccc(Br)cc2)c(=O)n(-c2ccccc2)n1C (centres undefined)	-8	-3.8	-3	-0.1%	0.5	5
O=C(CCN1CCN(c2ccccc2)CC1)N/N=C/c1ccccc1O	-17	6.8	7	-1.2%	-0.2	-70*
COc1ccc(C)cc1NC(=O)c1cc(-c2ccccc2)nc2c1cnn2C(C)C	50	-3.8	·	16%	0.9	6
CCN(CC)C(=O)CSc1nnc2sc3ccccc3n12	-7	-0.9	-2	-0.4%[38.3 µM]	-0.2	1
CC/C(O)=C1\C(=O)CC(C)(C)CC1=Nc1ccccc1C	-7	-0.4	8	3.1%	-0.1	14
CC1CCN(c2c(NCC3CCC(C(=O)N4CCc5ccccc5C4)CC3)c(=O)c2=O)CC1 (centres undefined)	-11	-1.0	-3	2.2%	0.9	1
CCC(C)NC(=O)CCc1c(C)nc2nc(-c3cc(OC)cc(OC)c3)nn2c1C (centres undefined)	13&-6	-2.1	0	1.7%&6.3%	-1.0&-0.1	0
N#CC1(NC(=O)CN2C(=O)NC3(CCCCCC3)C2=O)CCCCC1	9	-2.6	-10	1.1%	0.7	13
CCOC(=O)C(Cc1ccccc1)NC(=O)Cn1nnc(-c2ccc(C)cc2)n1 (centres undefined)	1	·	·	0.1%	3.4	·
O=C1C2C3c4ccccc4C(Br)(c4ccccc43)C2C(=O)N1c1ccccc1O (centres undefined)	-5	-2.6	-11	0.9%	1.6	-2
Cn1cc(CCC(=O)N2CCCC(C(=O)c3cccc4ccccc34)C2)cn1 (centres undefined)	-14	-0.1	11	0.7%	1.0	2
Cc1ccc(CNC(=O)Cn2cncn2)cc1	12	-1.6	2	2.2%	0.0	0
CCOC(=O)c1csc(NC(=O)CN2CCOCC2)n1	1	-3.6	·	-0.3%	0.7	11
COc1ccc(CNC(=O)Cc2ccc(NC(=O)N3CCSc4ncccc43)cc2)cc1	-14	·	·	0.8%	0.2	·
Cc1ccc(C(=O)NNC(=O)c2ccc(S(=O)(=O)N3CCOCC3)cc2)cc1	-6	-6.6	-1	2.0%	-0.9	-14

Complete entries, quoted from the list. Order of values: TRPML1 blocker | D2 agonist | CtBP-E1A inh | PINK1 modulator | TRPML1 ag | Six1-Eya2 inh
`O=C(Cn1ccnc1)c1ccc(O)c(O)c1` as listed: -15 | -2.8 | 5 | 1.8% | 0.3 | -10
`O=S(=O)(Nc1ccccc1N1CCCCC1)c1ccc(F)cc1F` as listed: 12 | -2.5 | 0 | 4.6% | 0.2 | -3
`CN(C)S(=O)(=O)c1ccc(Cl)c(C(=O)OCC(=O)NNC(=O)c2cccs2)c1` as listed: 11 | -0.4 | -5 | 1.3% | 0.8 | 2
`COc1ccc(-c2noc(=O)n2Cc2ccccc2Cl)cc1` as listed: 1 | -0.7 | 10 | 0.5% | -1.5 | 5
